# Bioassay records as filed in PubChem BioAssay.
# PrP 5UTR inh – inhibition of PrP 5' UTR reporter expression | cell-based PrP 5' UTR mRNA reporter, plate reader | inhibition, % (concentration not given with the values) | hit rate 0.35% among 340,000 | AID 488862;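 active = every replicate at 50% or more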;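 note: 0 = median of the neutral control wells; tested in H4 reporter cells; numbers are from one replicate; inactives centre near -14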
# Sa ugtP lethal – compounds lethal to S. aureus RN4220 ugtP deletion mutant; growth inhibition, % (concentration not given with the values); OD600 growth, 16 h; some inactives read as strong as hits; hit rate 0.54% among 330,000;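 active = z-score under -3 and OD600 up to 0.15 on both plates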;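 note: plate controls were untreated wells for no effect and antibiotic for full effect; wells of about 80 µL received 100 nL stock; the first replicate is given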
# Sa RN4220 lethal – S. aureus RN4220 growth inhibition. OD600, 16 h. inhibition, % (test concentration not listed). hit rate 0.33% among 330,000;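 active = z-score of -3 or lower and OD600 up to 0.18 on both plates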;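 note: plate controls were untreated cells for no effect and reference antibiotic for full effect; stock transfer was 100 nL into about 80 µL; one replicate is shown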
# BJeLR viability – kills HRASV12-expressing BJeLR cells; BJeLR (HRASV12) viability, CellTiter-Glo ATP luminescence, 48 h; reference of the scale not given here; hit rate 0.17% among 300,000; inhibition, % (test concentration not listed);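 active = replicate mean above 50%; inconclusive = above 50% but judged a plate artefact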;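 note: 50 nL library stock added to about 25 µL; numbers are from one replicate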
# Mtb hypoxia inh – reduces hypoxia-regulated biosensor signal in M. tuberculosis; M. tuberculosis hypoxia-regulated fluorescent reporter, fluorescence; fluorescence inhibition, % (no concentration beside the values); hit rate 0.1% among 300,000;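 active = 35 to 45% if threefold the growth effect, above 45% if 1.5-fold the growth effect; inactive = the rest, general growth blockers included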;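 note: wells of about 50 µL received 100 nL stock; 0% = vehicle wells and 100% = reference inhibitor wells; whole bacteria with a GFP reporter of the hypoxia response; strong numbers were not always called active; many hits fall short of the cut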
# Bead autofluor – counter-screen for toxin protease inhibitors: compound fluorescence; hit rate 3.1% among 360,000; AID 624483; compound autofluorescence counterscreen, microsphere flow cytometry; hits give high values; fluorescence intensity (no concentration beside the values);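 active = at least 3 SD above the mean of all compounds, about 16000 in these data; inconclusive = too few beads counted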;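 note: 100 nL of 1 mM stock went into each well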
# Mtb hypoxia inh growth – second read-out of Mtb hypoxia inh, no call of its own (marks repeat the call); growth inhibition, %; measured here: M. tuberculosis growth (absorbance);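 0% = vehicle and 100% = reference antibiotic; read after six days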
# The depositor's hits bear a star; ? = inconclusive; nt = no result given; & = joins results of further samples.
# Second line of a record – PrP 5UTR inh, Mtb hypoxia inh growth, BJeLR viability, Sa RN4220 lethal, Mtb hypoxia inh, Bead autofluor, Sa ugtP lethal
> Cc1ccc2cc3cc(C(=O)NCc4ccc5c(c4)OCO5)oc3nc2c1
    1, 4, 2, 3.4, 6, 3142, 5
> CC(=NNC(=O)c1ccncc1)c1ccc(N(C)C)cc1
    nt, nt, nt, 4.0, nt, nt, -4
> CCc1ccccc1NC(=O)C1CCCN(c2nn3c(=O)cc(C)nc3s2)C1 (stereo not drawn)
    -35, nt, -5, -2.9, nt, 6335, 2
> O=C(C[n+]1ccccc1)NN=Cc1ccccc1C(F)(F)F
    nt, 7, nt, 3.3, 9, nt, 7
> CCCC(C)NC(=O)c1sc2nc3n(c(=O)c2c1C)CCC3 (stereo not drawn)
    -16, 7, 1, 8.1, 16, 4130, 8
> O=C(CCCn1cnc([N+](=O)[O-])n1)Nc1cc(Cl)ccc1O
    -24, nt, 4, nt, nt, 2178, nt
> COc1ccc(NC(=O)CN2C(=O)CSC(C)C2=O)c(OC)c1 (stereo not drawn)
    -16, 4, -3, 4.0, -3, 2149, 5
> C=C(C)Cn1c(=O)n(CC2CS2)c2ccccc21 (stereo not drawn)
    -3, 10, -7, 1.4, 7, 2391, 15
> C=CCNC(=S)NNC(=O)c1ccc([N+](=O)[O-])cc1
    -20, 4, 9, 3.6, 5, 4643, 4
> COc1cc(NS(=O)(=O)c2ccccc2)ccc1-n1nc(C)cc1C
    -8, 9, 2, 9.0, 2, 17749*, -16
> CCC(=O)N1c2ccc(S(=O)(=O)NCc3ccco3)cc2CC1C (stereo not drawn)
    -18, -11, 4, 4.3, -9, 5721, -1
> COc1cccc(Cn2c(-c3cccs3)noc2=O)c1
    -7, 1, 6, -1.2, -4, 8503, -2
> O=C1C(CO)C(CO)C(CO)C1CO (stereo not drawn)
    -28, -3, nt, 1.3, -1, 3826, 5
> Cc1ccc2cc(C(c3nnnn3Cc3ccccc3)N3CCN(c4ccccc4)CC3)c(=O)[nH]c2c1 (stereo not drawn)
    -27, 6, -9, 7.7, -5, 23279*, -9
> CC(=Nc1ccc2c(c1)CCC2)c1c(O)n(C2CCCCC2)c(=O)[nH]c1=O
    -24, -3, 10, -1.0, 0, 15927, 3
> O=C(Nc1nnc(SCC(=O)N2CCOCC2)s1)C1CC(=O)N(c2ccc(F)cc2)C1 (stereo not drawn)
    -24, 4, -2, 3.7, -4, 5373, 2
> COC(=O)CSc1nnc(-c2ccccn2)n1Cc1ccco1
    -9, 6, 1, 2.3, 6, 10600, 4
> Cc1ccc(-n2cnnn2)c(S(=O)(=O)N2CCOCC2)c1
    -18, -5, -3, 1.9, 5, 5874, 1
> COc1ccccc1Nc1nc(N(C)c2ccccc2)nc(N)c1[N+](=O)[O-]
    -29, -5, -14, 4.1, 13, 3773, 4
> COc1cc(C=NNC(=O)c2cccc3ccccc23)cc(OC)c1OC
    nt, 2, nt, 2.6, -6, nt, 12
> Cc1cccnc1NC(=O)CNC(=O)c1ccccc1
    -11, 3, nt, 6.7, 0, 3899, 4
> CC12CC3CC(C)(C1)CC(C(=O)N1CCN(C(=O)C4CCCO4)CC1)(C3)C2 (stereo not drawn)
    -11, -8, -1, 7.9, 5, 8253, 2
> C#CCNC(=O)C1=CC(c2csc3ccccc23)C(CCCO)C(OCC)O1 (stereo not drawn)
    nt, 3&5, nt, 4.8&7.3, 0&9, nt, 9&-5
> O=C(CN(c1ccc2c(c1)OCCO2)S(=O)(=O)c1ccccc1)NCc1ccco1
    -12, nt, -2, 0.1, nt, 4779, 7
> Cc1cc(NC(=O)C2CCC2)n(-c2ccccn2)n1
    -2, -8, nt, -3.2, 11, 3565, -1
> O=C(COC(=O)/C=C/c1ccccc1)Nc1cc(C(F)(F)F)ccc1N1CCOCC1
    -70, nt, 1, nt, nt, 2356, nt
> Cc1ccc(S(=O)(=O)Oc2cccc(C=NNc3ccc(C(=O)O)cc3)c2)cc1
    nt, 4, nt, 26, 5, nt, 36
> Cc1ccc(-n2nc3c(c2NC(=O)c2ccc(Br)o2)CSC3)c(C)c1
    -31, 5, 9, 4.1, 4, 10937, 10
> CCNC(=O)CC1SC(=Nc2ccc(C)c([N+](=O)[O-])c2)N(C)C1=O (stereo not drawn)
    nt, -12, 4, 0.8, 7, 4213, 3
> CN1C(=O)/C(=C/c2cccn2-c2ccc3ccccc3c2)C(=O)NC1=S
    3, nt, 7, 11, nt, 2732, 27
> CCOC(=O)/C(=N/Nc1ccccc1)Sc1nnnn1-c1ccc(C)cc1
    -8, nt, -7, nt, nt, 2061, nt
> CCOc1ccc(N(C(=O)c2cnsn2)C(C(=O)NC2CCCCC2)c2ccncc2)cc1 (stereo not drawn)
    -18, 10, -10, 4.3, 5, 1982, 9
> O=C(Nc1cccc(-c2cscn2)c1)C1CCN(Cc2ccccn2)CC1
    -11, 4, -3, -3.9, -6, 6042, -8
> COc1cccc(/C=C/C(=O)NCc2cn3cc(Cl)ccc3n2)c1OC
    13, 7, 3, 1.8, 1, 4187, 2
> Cc1cc(-c2n[nH]c(=S)n2/N=C/c2cc([N+](=O)[O-])ccc2Cl)n[nH]1
    -6, nt, 4, nt, nt, 2118, nt
> CCOC(=O)C(C)c1c(C)[nH]c(=S)[nH]c1=O (stereo not drawn)
    -12, 10, -4, -3.4, 11, 2442, 1
> O=C(COC(=O)CCN1C(=O)C2CC=CCC2C1=O)Nc1ccc(Cl)cc1F (stereo not drawn)
    -20, 5, nt, 15, 4, 7803, 0
> O=C(O)c1ccccc1-c1ccccc1C(=O)NNc1ccccc1
    -25, nt, -3, nt, nt, 2147, nt
> O=[N+]([O-])c1ccc(NCc2ccccn2)nc1
    -14, 4, 3, 2.5, 13, 2353, 8
> COc1ccc(NC(=O)NCCc2c[nH]c3ccccc23)c(OC)c1
    -11, 8, -1, 1.6, 3, 4193, 1
> O=C(Cn1cnc2ccccc2c1=O)c1ccc(OC(F)F)cc1
    -25, 9, -2, 4.1, 7, 4771, 8
> C[C@]12CCC3C(CCC4=CC(=NOCC(=O)NC(CCC(N)=O)C(=O)O)CC[C@@]43C)C1CCC2O (stereo partly drawn)
    nt, 8, nt, 4.9, 12, nt, 10
> Cc1ccc(S(=O)(=O)Nc2cccc3c2CCCC3)cc1
    0, 4, -5, 2.3, -7, 2428, -17
> CN1CCN(c2ccc(NC(=O)c3ccc(-c4ccccc4F)o3)cc2)CC1
    -103, 10, nt, 2.7, 18, 3806, 17
> OCC1CCCN(c2nc(CN3CCCCC3)nc3scc(-c4ccccc4)c23)C1 (stereo not drawn)
    -70, -1, -6, 0.2, 4, 3271, -3
> O=C(COc1ccc(Br)cc1)N1CCc2ccccc2C1
    -13, -1, -21, 1.1, -3, 3920, 7
> CCCn1c2ccccc2c2nc3ccccc3nc21
    1, -1, 14, 10, 12, 4676, 3
> CC(=O)CSc1nnc(Cc2ccc3c(c2)OCO3)o1
    -30, 0, 7, -0.9, -4, 9037, -4
> N/C(=N\OC(=O)C(c1ccccc1)c1ccccc1)c1ccncc1
    -28, 6, -3, 3.2, 7, 4245, 18
> CCN(CC(=O)Nc1c(F)cccc1F)C(=O)c1cc(C)oc1C
    -10, 1, 7, 1.6, 6, nt, 5

# The listing continues.
# Second line of a record – PrP 5UTR inh, Mtb hypoxia inh growth, BJeLR viability, Sa RN4220 lethal, Mtb hypoxia inh, Bead autofluor, Sa ugtP lethal
> CC(=O)c1ccccc1OCCn1nc(C(=O)O)c2ccccc2c1=O
    -27, 0, -3, 3.3, 12, 3220, 5
> CCCCC(c1nnnn1CC1CCCO1)N1CCN(c2cccc(C)c2C)CC1 (stereo not drawn)
    -29, nt, -12, 2.2, nt, 2989, -5
> COc1ccc(CN2C(=O)[C@H]3Cc4c([nH]c5ccccc45)C(C)(C)N3C2=O)cc1
    -25, nt, -8, nt, nt, 4326, nt
> COc1ccc(C(=O)c2sc(Nc3ccccc3)nc2N)cc1OC
    -4, 8, 7, -0.2, 12, 3535, 13
> CCOC(=O)c1sc2nc(C)nc(NCc3ccccc3OC)c2c1C
    -9, 11, 6, -0.4, 5, 3675, 5
> COc1ccc(NC(=O)[C@H](CCS(C)(=O)=O)N2Cc3ccccc3C2=O)c(OC)c1
    -17, 7, -5, -0.1, 8, 4051, 6
> CC1Cc2cc(/C(O)=C3\C(=O)C(=O)N(CCN4CCOCC4)C3c3ccccc3F)ccc2O1 (stereo not drawn)
    -3, nt, 12, 11, nt, 3640, 2
> O=C(COC(=O)[C@@H]1CC(O)CN1S(=O)(=O)c1ccccc1[N+](=O)[O-])c1ccccc1 (stereo partly drawn)
    -28, 9, -5, 0.8, -8, 4683, 4
> COc1cc2ccccc2cc1C(=O)OCC(=O)N(CC(C)C)c1c(N)n(Cc2ccccc2)c(=O)[nH]c1=O
    -21, 2, -4, -0.6, 8, ?, 4
> Cc1cc(C)c2cc(CN(Cc3ccc4c(c3)OCO4)Cc3nnnn3Cc3ccco3)c(=O)[nH]c2c1
    9, -11, 8, -9.7, 15, 3327, -21
> Cc1cc(Cl)c2oc(C(=O)N3CCN(c4ccncc4)CC3)c(C)c2c1
    11, nt, 7, -2.3, nt, 4729, -10
> [O-]/[N+](=C/c1ccc(F)cc1)c1ccc(Cl)cc1
    -96, nt, -2, nt, nt, 3266, nt
> CC(C)(C)NC(=O)C(c1ccc(O)cc1)N(Cc1ccco1)C(=O)Cn1nnc(-c2cccs2)n1 (stereo not drawn)
    -7, 8, 0, 3.4, -9, 9039, -12
> CNC(=O)c1c(NC(=O)C2=COCCO2)sc2c1CCN(C(=O)OC)C2
    -18, 15, -16, 94*, 1, 6910, 97*
> COC(=O)c1c(C(=O)OC)n(CCCN)c2ccc(C)cc12
    -8, 5, -5, 3.9, 3, 9520, -2
> CCOC(=O)c1c(NC(=O)c2ccncc2)sc(C)c1C
    1, 7, -4, 7.4, 18, 4886, 0
> Cc1nc2ccc([N+](=O)[O-])cc2c(=O)n1Cc1ccc(Br)cc1
    -36, 2, 4, 5.1, 13, 4549, -7
> O=C(c1ccccc1)N1CCN(c2ccc([N+](=O)[O-])c(NCC3CCCO3)c2)CC1 (stereo not drawn)
    -10, -1, 8, 3.6, 2, 3319, 23
> CCN1CCN(c2nc3ccccc3n3cnnc23)CC1
    -2, 5, 4, 6.0, 11, 3949, 9
> COc1ccccc1Cn1nc(C(=O)O)c2ccccc2c1=O
    -10, -9, -5, 3.3, -3, 5867, 13
> COC(=O)c1ccc(COc2ccc(/C=N/Nc3cccc(C(=O)O)c3)cc2)cc1
    -42, nt, 5, nt, nt, 4078, nt
> COc1cc(Cl)c(C)cc1NC(=O)CNC(=O)Cn1cnc2ccccc2c1=O
    -37, 2, 21, 6.1, 4, 11128, -2
> CCC(C)NC(=O)CCn1ccc2cc(S(=O)(=O)N3CCCC3)ccc21 (stereo not drawn)
    -7, 2, 1, 2.9, 5, 4827, 2
> CC(C)CC(NC(=O)c1[nH]cnc1C(=O)NC(C)c1ccccc1)C(=O)OC(C)(C)C (stereo not drawn)
    nt, 4&2, nt, 6.4&-7.1, 8&3, nt, 6&-22
> COC(=O)C1(C)Nc2ccccc2C(=O)N1c1ccccc1OC (stereo not drawn)
    -25, nt, -9, 0.7, nt, 5961, 5
> O=C1c2ccccc2CN1C(CO)c1ccccc1 (stereo not drawn)
    -5, 1, -5, 4.9, 5, 4169, 5
> COc1ccccc1NC(=O)c1ccccc1C(=O)N(C)Cc1ccccc1
    -27, 7, nt, 2.8, 2, 4121, 5
> Cc1ccc2nsnc2c1S(=O)(=O)N1CCN(Cc2ccc3c(c2)OCO3)CC1
    -4, -8, -4, -0.1, -1, 7485, 5
> Cc1cccc(C)c1NC(=S)NN(Cc1ccccc1)c1ccccc1
    5, nt, -2, 1.5, nt, 4817, 6
> CN(C(=O)COC(=O)c1ccccc1C(=O)c1ccccc1)c1ccccc1
    3, -3, nt, 7.5, 4, 3100, 10
> Cc1ccc(N(Cc2ccccc2)C(=O)c2cccc(S(=O)(=O)N3CCOCC3)c2)cc1
    7, -4, 2, 2.7, -8, 4639, 1
> Cc1ccc(C)c(NS(=O)(=O)c2ccc3c(c2)NC(=O)CCS3)c1
    -9, 2, -4, 65, 15, 6035, 28
> CC12CCC(=O)N1C(C(=O)Nc1ccc(F)c(F)c1F)CS2 (stereo not drawn)
    -3, 4, -14, 1.6, 7, ?, -1
> CCN(C(=O)COc1cc(=O)n(CC)c2ccccc12)c1cc(Cl)ccc1OC
    -12, nt, -3, 12, nt, 6085, 4
> COc1ccc(COC(=O)c2nc3nc(C)cc(C)n3n2)cc1F
    -17, nt, 4, 0.2, nt, 4690, -1
> C=CCNC(=S)NNC(=O)C(CC(C)C)CC(C)O (stereo not drawn)
    -7, 7, -5, 3.3, 6, ?, 4
